TRPV1 potentiator: enhances activation of the human vanilloid receptor TRPV1 | actives 0.02% (n = 320,000) | AID 540277 | TRPV1-expressing cells, Fluo-8 calcium influx, capsaicin EC20 potentiation; host cell line not named in the record; control for the full effect not named in the record | potentiation, % at 8.33 µM; active means potentiation above 80%; inconclusive means 30% to 80%; inactive means below 30%; further: 0% is about no effect
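TRPV1-expressing cells were cultured overnight at 35.5C and loaded with Fluo-8 calcium dye for 40 to 90 min at room temperature. After a 10 s baseline, compound was added and calcium influx was read kinetically for 3 min (ex 480/em 520 nm).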
PINK1 expr mod: PINK1 expression modulation; actives 0.2% (n = 410,000); PINK1 immunofluorescence, high-content cytometry, 24 h; Potency, µM (titrated, usually from 76.6 µM), for inactives: top-dose activation (PINK1 increase), actives largely listed as activators; AID 624263; active = well fitted activation curve with a large enough effect; inconclusive = small, poorly fitted or top-dose-only effect; inactive = flat fitted curve, though single readings scatter; cell line not stated here;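 further: potency means the concentration at half of the fitted maximal effect; % of control where 0% means no effect; nearly all actives have a fitted effect of over 65% in size; a mitochondrial uncoupler was the plate control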
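Cells are seeded, rested 12 hours, then given compound at five concentrations or DMSO for 24 hours. After fixation, blocking and antibody staining, PINK1 amount and mitochondrial localization are scored; CCCP serves as control.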
Menin MLL FP FL: inhibitors of human menin-MLL interaction, wild-type MLL peptide; Fluorescence polarization, fluorescein-MLL peptide displacement from menin; AID 1766; FP activity change, % at 61.4 µM; 290,000 tested, under 10 active; inconclusive = falling polarisation curve, or a change in total fluorescence; inactive = total fluorescence flat and polarisation flat or rising; no compound was filed as active; the % refers to the polarisation; negative = inhibition;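 further: % of control where 0% means no effect; inhibitors lower the polarisation; unlabelled MLL peptide was the positive control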
TRPML1 inh: human mucolipin-1 channel inhibition; Q9GZU1; TRPML1-inducible cells, Ca2+ dye fluorescence, FDSS; stronger effect = lower value; inhibition of EC80 agonist-evoked calcium signal; activity change, negative = inhibition, % (concentration not given with the values); actives 0.02% (n = 390,000); AID 624415; in the data active means activity change below about -50%; inconclusive means about -30% to -50%; inactive means above about -30%;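 further: stimulus is agonist 54-4 at its EC80 concentration; on the % scale 0 is the no-effect control and ±100 the full control effect; compound concentration not given in the record; the text of the record puts the active cut at -80%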
Target sequence (Q9GZU1 whole entry, looked up): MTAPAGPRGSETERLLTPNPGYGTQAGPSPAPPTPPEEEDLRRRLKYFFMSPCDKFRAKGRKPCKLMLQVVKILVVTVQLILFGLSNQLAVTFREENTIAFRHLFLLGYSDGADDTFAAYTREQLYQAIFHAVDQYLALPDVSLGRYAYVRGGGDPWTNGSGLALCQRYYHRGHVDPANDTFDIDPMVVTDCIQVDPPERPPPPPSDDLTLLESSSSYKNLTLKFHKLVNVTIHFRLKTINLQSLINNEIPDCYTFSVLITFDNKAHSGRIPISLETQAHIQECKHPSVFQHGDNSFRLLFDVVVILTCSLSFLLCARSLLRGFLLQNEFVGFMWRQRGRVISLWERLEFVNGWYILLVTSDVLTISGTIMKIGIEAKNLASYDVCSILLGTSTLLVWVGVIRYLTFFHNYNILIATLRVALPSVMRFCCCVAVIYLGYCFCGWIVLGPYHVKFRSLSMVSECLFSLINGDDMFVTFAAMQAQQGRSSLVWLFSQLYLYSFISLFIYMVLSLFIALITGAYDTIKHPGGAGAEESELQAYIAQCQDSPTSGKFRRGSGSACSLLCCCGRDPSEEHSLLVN
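TRPML1-DL cells, Tet-induced overnight (~16 h, 37 °C) at 1,500 cells/well, were loaded with Ca8 no-wash dye plus quencher for 45-90 min at room temperature. Compounds were pinned during FDSS kinetic reading; agonist 54-4 at EC80 (4 uM final) then added.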
ClpP mod: qHTS Assay for Activators of ClpP; ATP-dependent Clp protease proteolytic subunit (Bacillus subtilis (strain 168)), P80244; purified B. subtilis ClpP, FRET peptide cleavage, 20 min; Potency, µM (doses to about 57.5 µM), without a hit: top-dose activity change, negative = active; actives 1.9% (n = 340,000); active = well fitted falling curve with a large enough effect; inconclusive = small, poorly fitted or top-dose-only effect; inactive = no such curve, though single readings can be large or run the other way; further: potency means the concentration at half of the fitted maximal effect; the source files actives as falling curves though it sought activators and does not explain the sign; nearly all actives have a fitted effect of over 65% in size; many hits overshoot -100%
Target sequence (P80244 whole entry, looked up): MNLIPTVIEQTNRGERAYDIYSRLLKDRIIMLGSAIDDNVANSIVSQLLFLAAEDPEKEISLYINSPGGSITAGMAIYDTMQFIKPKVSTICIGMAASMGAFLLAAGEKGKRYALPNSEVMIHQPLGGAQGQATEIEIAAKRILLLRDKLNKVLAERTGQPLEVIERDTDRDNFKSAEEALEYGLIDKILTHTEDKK
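Buffer: 100 mM Tris/HCl pH8, 100 mM KCl, 0.05% low protease BSA, 2.5% glycerol, 0.01% Tween-20. ClpP 10 microg/mL final; 20 min RT; delta FRET normalized to ADEP and DMSO controls.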
TRPML1 ag: agonists of human TRPML1 channel. Q9GZU1. TRPML1-expressing cells, Ca2+ dye fluorescence, FDSS; host cell line not named in the record; reference of the full effect not given here. activation, % (no concentration beside the values). actives 0.12% (n = 410,000). AID 624414; in the data active = activation above about 50%; inconclusive = about 30% to 50%; inactive = below about 30%; further: 0% is about no effect; the text of the record puts the active cut at 80%
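In this qHTS format, compounds were pin-transferred onto Ca8-dye-loaded TRPML1-DL cells induced with Tet overnight, and intracellular Ca2+ fluorescence was recorded kinetically for 110 s after a 10 s baseline. A subsequent 4uM final 54-4 (EC80) addition followed by a second 110 s read served as the antagonist phase.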
Sfp inh: Sfp phosphopantetheinyl transferase inhibition; Q9F4F7; Biochemical Sfp PPTase activity, qHTS; Potency, µM, inactives show max response, negative = inhibition, hits mostly inhibitors; actives 3.5% (n = 310,000); AID 1490; active means well fitted inhibition curve with a large enough effect; inconclusive means small, poorly fitted or top-dose-only effect, or another doubt; inactive means no such curve, though single readings can be large or run the other way;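 further: the enzyme is Sfp with the accession as filed and its product quenches rhodamine fluorescence; potency means the concentration at half of the fitted maximal effect; 0% = enzyme reaction without inhibitor and -100% = no enzyme wells; top concentration of the series not given in the record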
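Fluorescence-quenching assay with 15 nM Sfp, 5 uM rhodamine-CoA and 12.5 uM BHQ-2-labelled ybbR peptide in pH 7.6 Hepes/MgCl2 buffer. Enzyme was pre-incubated with compound for 15 min at room temperature. Rate was taken from the 30-min fluorescence change (525/598 nm).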
The depositor's hits bear a star; ? = inconclusive; nt = not tested or not shown; [ ] = remark or other dose.

Values run as follows: PINK1 expr mod	TRPML1 inh	ClpP mod	Sfp inh	TRPML1 ag	Menin MLL FP FL	TRPV1 potentiator
1	CCOc1ccc(NCc2cccn2-c2nnc(N3CCC(C(=O)NC(C)c4ccccc4)CC3)s2)cc1 (configuration not stated)
 : 0.8%	3.3	-2.0%	nt	0.0	nt	nt
2	COC(=O)c1ccc(COC(=O)CNC(=O)c2cccc(OC)c2)o1
 : 1.2%	-10.8	0.3%	nt	3.5	nt	?
3	CCC(C)[C@H](NC(=O)OC(C)(C)C)C(=O)N/N=C/c1cccc2nccnc12 (some centres not stated)
 : 5.7%[38.3 µM]	-0.4	1.0%	?	-0.4	1.4	-9.7
4	Cc1ccc(S(=O)(=O)n2cc(CO)c3ccccc32)cc1
 : 4.3%	3.8	nt	nt	1.7	nt	nt
5	Cc1ccc2cccc(OCC(=O)Nc3ccc4c(c3)OCO4)c2n1
 : -0.3%	-1.7	-3.2%	4.4%	0.6	?	-8.1
6	O=C(CSc1nnc(NC(=O)C2CC2)s1)Nc1ccccc1
 : 4.8%	-5.4	nt	-9.2%	-0.4	3.4	8.5
7	CCc1ccc(-c2csc3[n+]2CCN3C(C)=O)cc1
 : -3.8%[38.3 µM]	-15.4	-0.3%	39.8µM*	0.7	0.4	-14.6
8	CC1=C(C(=O)Nc2ccccn2)C(c2ccccc2Cl)NC(=S)N1 (configuration not stated)
 : 3.6%	7.8	2.2%	-11.4%	0.4	1.3	7.5
9	O=C(COC(=O)CC1CCS(=O)(=O)C1)Nc1ccc(F)cc1 (configuration not stated)
 : 1.7%	13.1	0.0%	nt	-0.7	nt	nt
10	CS(=O)(=O)c1cccc(C(=O)NCc2ccccc2)c1
 : -2.5%[38.3 µM]	-3.4	-0.8%	-21.9%	0.3	2.8	-9.1
11	CC(C)C[C@H](NC(=O)OC(C)(C)C)C(=O)N/N=C/C1=Cc2ccccc2OC1C (some centres not stated)
 : 4.6%[38.3 µM]	13.2	28.2µM*	17.5%	-0.1	1.6	-0.7
12	COc1ccc(C2=NN(C(=O)CCCC(=O)O)C(c3cccs3)C2)cc1OC (configuration not stated)
 : 0.3%	-19.2	nt	18.3%	-0.1	1.5	-9.4
13	O=C(CSc1nnc(C2CC2)n1Cc1ccccc1)N1CCNC1=O
 : 2.1%	10.3	nt	nt	-0.2	nt	nt
14	COc1ccccc1-c1cnc(C(O)c2cccc(F)c2)[nH]1 (configuration not stated)
 : 2.0%	nt	-2.7%	nt	-1.2	nt	nt
15	Cc1ccc(NC(=S)Nc2cccc3cnccc23)c(C)c1
 : -0.8%	4.6	nt	50.1µM*	-0.4	5.7	-6.7
16	Cc1ccccc1-c1noc(-c2ccccc2C(=O)NCc2ccco2)n1
 : 1.4%	-1.2	-20.1%	44.7µM*	0.0	9.6	?
17	CCOC(=O)N1CCN(Cc2nc(N)nc(Nc3ccc(Cl)cc3)n2)CC1
 : 0.2%	16.9	nt	-2.1%	-0.3	-1.3	2.4
18	CCC(c1nnnn1C(C)(C)CC)N1CCN(c2ccccc2F)CC1 (configuration not stated)
 : 3.6%	-0.2	nt	16.2%	1.9	3.8	-3.5
19	Cc1ccc(Cl)c(OCCN2CCc3ccccc3C2)c1
 : ?	1.5	-4.2%	-4.1%	-1.1	-2.4	26.8
20	COc1ccc(NC(=O)CSc2ncc3c(n2)-c2ccccc2N(C)S3(=O)=O)cc1Cl
 : 1.7%	-13.4	182.7%	nt	0.7	nt	nt
21	CCN(C(=O)COC(=O)c1ccc2c(c1)OCO2)c1c(N)n(Cc2ccccc2)c(=O)[nH]c1=O
 : 0.1%	-0.7	-18.0%	nt	-0.1	nt	8.9
22	O=C(NCC1OCCc2ccccc21)c1ccc(NC(=O)c2cccc(Br)c2)cc1 (configuration not stated)
 : 15.1%	-11.2	-1.2%	21.0%	-0.2	8.9	16.5
23	O=C(Nc1cccc(C(F)(F)F)c1)c1cc(CN2CCOCC2)on1
 : -1.4%	8.9	-2.2%	nt	1.3	nt	nt
24	NC(=O)C1CCN(C(=O)CN(c2cccc(C(F)(F)F)c2)S(=O)(=O)c2ccccc2)CC1
 : -0.4%	-12.0	-0.3%	6.9%	0.7	5.0	6.6
25	Clc1cccc2sc(N3CCN(c4ccccc4)CC3)nc12
 : 4.9%	3.5	0.0%	?	-0.4	-0.1	1.0
26	O=C(NCc1ccc(F)cc1)c1ccc2c(c1)N(Cc1c(F)cccc1Cl)C(=O)CS2
 : 1.9%	34.1	-0.8%	nt	0.1	nt	nt
27	NC(=O)c1ccc(N2CCCCC2)c(N2C(=O)C3CC=CCC3C2=O)c1 (configuration not stated)
 : -0.1%	-13.3	-2.6%	6.5%	0.6	1.3	1.2
28	CC(C(=O)NC1CCCC1)N1C(=O)c2cccc3cccc1c23 (configuration not stated)
 : 2.1%	8.5	-4.2%	6.9%	-0.9	4.5	9.2
29	Cn1c(=O)c(=O)n(C)c2cc([N+](=O)[O-])c(N3CCOCC3)cc21
 : 1.0%	4.1	nt	-10.1%	1.9	-1.6	8.1
30	CN1C(=O)c2ccc(NC(=O)c3ccc(N4CCCCC4)c([N+](=O)[O-])c3)cc2C1=O
 : 7.8%	-6.6	1.4%	?	-0.3	-0.8	3.9
31	CC(/C=N\NC(=O)Cn1cncn1)=C/c1ccc(C(C)C)cc1
 : 1.1%	-0.6	-0.6%	4.6%	-1.0	4.8	-17.3
32	COc1ccccc1OCc1ccc(C(=O)Nc2ccccc2F)cc1
 : 11.3%	0.0	11.2%	1.2%	0.8	4.8	-23.3
33	O=C(C(=O)N1CCCCCC1)c1c[nH]c2ccccc12
 : -1.7%	-14.6	-1.0%	12.7%	-0.3	-3.6	4.1
34	CCOC(=O)CNC(=O)CSc1nc(-c2cccc(C)c2)ns1
 : 3.4%	-17.9	0.8%	-39.2%	-0.8	-2.2	-10.1
35	C[C@H](CO)N1C[C@H](C)[C@@H](CN(C)CC2CCCCC2)Oc2c(NC(=O)Cc3ccccc3)cccc2C1=O
 : -1.3%	25.6	-1.3%	nt	-0.4	nt	nt
36	CC(C)CC(NS(=O)(=O)c1cc(C(=O)O)ccc1Cl)C(=O)O (configuration not stated)
 : -1.1%	5.3	nt	-5.4%	-0.1	-2.6	-3.9
37	CC1CCCCN1C(=O)c1ccc(C(=O)c2ccccc2)cc1 (configuration not stated)
 : 1.1%	-8.0	0.2%	nt	-0.2	nt	nt
38	Cc1ccc(S(=O)(=O)N2CCCC2C(=O)Nc2ccc(Br)cc2)cc1 (configuration not stated)
 : 1.2%	67.2	0.2%	nt	4.9	nt	nt
39	CCCc1cc(C(=O)OC)c(NC(=O)OCC)s1
 : 11.0%[38.3 µM]	34.0	-4.7%	-5.4%	-0.4	-1.4	0.0
40	COCCn1c(=O)c(-c2ccc(Cl)cc2)nc2cnc(N3CCNCC3)nc21
 : -1.0%	nt	nt	-0.1%	nt	-2.0	nt
41	Cc1ccccc1CNC(=O)CCC(=O)N1Cc2ccccc2Oc2ncccc21
 : 2.4%	-7.2	0.3%	19.0%	-0.5	nt	-1.5
42	COc1ccc2[nH]c(N=Nc3ccccc3C)c(O)c2c1
 : 9.8%	27.1	-1.3%	-10.4%	-0.5	4.2	-1.6
43	Cc1ccc2c(c1)c1c(c(=O)n(-c3cccc(Cl)c3)c(=O)n1CC(=O)N1CCCC1)n2C
 : 0.8%	-9.6	4.4%	nt	0.7	nt	nt
44	Cc1nc2cc(-c3cccc(F)c3)nn2c(C)c1CCC(=O)NC(C)CCc1ccco1 (configuration not stated)
 : 2.4%	-25.9	-20.5%	0.8%	-0.5	1.3	-3.6
45	CN1C(=O)C(C)(C)c2cc(S(=O)(=O)N3CCN(c4cccc(Cl)c4)CC3)ccc21
 : 0.8%	-4.8	0.6%	5.0%	1.2	-1.9	-44.7
46	O=C(Nc1ccon1)c1ccc(Cl)s1
 : 4.7%[38.3 µM]	-9.9	-0.8%	11.6%	0.0	-2.1	6.9
47	COCCNc1ncnc2c1[nH]c1ccccc12
 : 3.6%	14.1	-2.0%	-7.2%	-0.5	-1.2	nt
48	Nc1ccc2c(c1)-c1ccccc1S(=O)(=O)N2
 : -3.2%	1.2	0.3%	-15.7%	0.7	2.7	3.9
49	COc1ccc(C(=O)Nc2cccc(-c3nnc(-c4ccco4)o3)c2)cc1
 : -2.0%	29.4	-3.4%	-2.6%	-1.1	-1.0	-8.0
50	CCC1(C)Cc2c(sc3nc(SC)[nH]c(=O)c23)CO1 (configuration not stated)
 : 0.5%	3.3	nt	-4.8%	-0.5	6.9	nt

Later entries
Values run as follows: PINK1 expr mod	TRPML1 inh	ClpP mod	Sfp inh	TRPML1 ag	Menin MLL FP FL	TRPV1 potentiator
51	Cc1ccsc1C(=O)OCC(=O)NCCCc1ccccc1
 : 1.4%	7.8	0.4%	1.4%	-0.4	-1.4	-14.4
52	Cc1cccc(-n2c(SCc3cc(=O)n4ccsc4n3)nc3ccccc32)c1
 : -2.9%	-2.6	-9.2%	6.3%	4.3	1.4	14.5
53	Cc1c(C(=O)NCC2COc3ccccc3O2)oc2ccc(S(=O)(=O)N3CCOCC3)cc12 (configuration not stated)
 : -0.1%	14.8	-0.9%	3.3%	2.8	1.2	-3.2
54	CCN(CC)CCNc1ccc(CO)c2oc3cc(Cl)ccc3c(=O)c12
 : -1.2%	17.4	1.4%	nt	-0.2	nt	nt
55	COc1ccc(C(=O)Nc2ccc3c(c2)OCCO3)cc1S(=O)(=O)N1CCOCC1
 : -1.4%	1.2	0.9%	nt	-0.1	nt	21.3
56	O=C(Oc1cccc(C(=S)N2CCOCC2)c1)c1ccc([N+](=O)[O-])cc1
 : 2.5%	7.1	nt	-24.4%	-0.7	5.7	12.0
57	CCOc1ccc(-n2c(=O)c3sc4ccccc4c3n(Cc3cccc(C)c3)c2=O)cc1
 : 1.3%	11.2	-8.8%	nt	-0.4	nt	nt
58	CSCCC(NC(=O)COc1ccccc1)C(=O)N(C)Cc1ccc(Cl)cc1Cl (configuration not stated)
 : 6.4%	-11.2	1.4%	nt	-1.4	nt	-10.0
59	Cc1nnc2c(N3CCN(C(=O)c4ccco4)CC3)nc3ccccc3n12
 : 0.7%	3.2	-2.0%	6.4%	-1.4	nt	4.2
60	Cc1nn(C(C)C(=O)O)c(=O)c2ccccc12 (configuration not stated)
 : -0.5%	6.1	nt	14.9%	0.3	-2.0	6.6

From PubChem BioAssay
